Assay outcomes deposited in PubChem BioAssay by ICCB-Longwood Screening Facility, Harvard Medical School.
VACV E9 pol inh = vaccinia E9 polymerase processive synthesis inhibitors, primary screen, biochemical, absorbance | Vaccinia virus DNA polymerase (E9) processive complex | in vitro processive DNA synthesis, absorbance read-out; hits give low values; some inactives read as strong as hits | normalized absorbance, % (test concentration not listed) | 0.94% of 46,000 active | AID 493162, 2011;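 active = replicate mean up to 90% and picked by the depositor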;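 note: 100% = median of the test wells of a plate; 100 nL library stock went into each well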
The depositor's hits bear a star. A portion of the library (hit frequency here may not be typical).

SMILES	VACV E9 pol inh
Cc1cc(-c2ccccc2C(=O)NCc2ccccc2)on1	105
O=C(CC1(O)C(=O)N(CCc2ccccc2)c2ccc(Cl)cc21)c1ccccc1 (stereo unspecified)	96
CCCC(=O)N1c2ccccc2NC2=C(C(=O)CCC2)C1c1ccc(OC)c(OC)c1 (stereo unspecified)	100
CCC(=O)NCCc1cc2cc(C)c(C)cc2[nH]c1=O	102
Cc1ccc(C(=O)Oc2ccc3c4c(c(=O)oc3c2)CCCC4)cc1	94
CC(C)N(Cc1ccccc1)C(=O)c1ccccc1C(=O)O	94
Oc1cccc(Nc2nc(NCC3CCCO3)c3ccccc3n2)c1 (stereo unspecified)	82
COCc1cc(C)nc2sc3c(c12)NC1(CCCCC1)NC3=O	97
CCN1CCc2c(OC(C)C)cccc2C1=O	98
CCOc1ccc(C(=O)NCC(=O)O)cc1	81
CC(=O)N1CCN(c2ccc(N)cc2)CC1	85
Cc1ccc(S(=O)(=O)c2nc(S(C)(=O)=O)sc2N2CCCC2)cc1	101

As a short view, some entries already given:
SMILES	VACV E9 pol inh
CCCC(=O)N1c2ccccc2NC2=C(C(=O)CCC2)C1c1ccc(OC)c(OC)c1 (stereo unspecified)	100
CCC(=O)NCCc1cc2cc(C)c(C)cc2[nH]c1=O	102
Cc1ccc(C(=O)Oc2ccc3c4c(c(=O)oc3c2)CCCC4)cc1	94
CC(C)N(Cc1ccccc1)C(=O)c1ccccc1C(=O)O	94
Oc1cccc(Nc2nc(NCC3CCCO3)c3ccccc3n2)c1 (stereo unspecified)	82
COCc1cc(C)nc2sc3c(c12)NC1(CCCCC1)NC3=O	97
CCN1CCc2c(OC(C)C)cccc2C1=O	98
CCOc1ccc(C(=O)NCC(=O)O)cc1	81
CC(=O)N1CCN(c2ccc(N)cc2)CC1	85

The results go on.
SMILES	VACV E9 pol inh
O=C(NC1CCCCC1NC(=O)c1cccs1)c1cccs1 (stereo unspecified)	99
CC(C)n1c(SCC(=O)c2ccccc2)nc2cc(Cl)ccc21	101
O=c1[nH]c2ncccc2nc1-c1ccccc1	102
Cc1ccccc1S(=O)(=O)Nc1ccccc1	93
Cc1ccc2oc(-c3ccccc3)cc(=NCCN(C)C)c2c1	30*
COC(=O)c1cnn(-c2ccccc2)c1C(OC)OC	100
Nn1c(=S)[nH]c2cc(C(=O)O)ccc2c1=O	88
Cn1c(=NC(=O)c2c(F)cccc2F)sc2cc(S(C)(=O)=O)ccc21	94
O=C1C(c2ccccc2)Nc2c3ccccc3nc(=S)n21 (stereo unspecified)	86
C[C@H](CCC(=O)O)[C@H]1CCC2C3C(=O)CC4CC(=O)CC[C@]4(C)C3CC(=O)[C@@]21C (stereo partly specified)	99
NC1=NC(=O)C(CC(=O)Nc2ccc(N3CCCCC3)cc2)S1 (stereo unspecified)	98
COC(CN(C)C(=O)c1cn(C)c2ccc(S(=O)(=O)N3CCOCC3)cc2c1=O)OC	93

Single entries from the entries so far:
Value of O=C1C(c2ccccc2)Nc2c3ccccc3nc(=S)n21 (stereo unspecified) under VACV E9 pol inh: 86
Value of CCOc1ccc(C(=O)NCC(=O)O)cc1 under VACV E9 pol inh: 81
Value of COCc1cc(C)nc2sc3c(c12)NC1(CCCCC1)NC3=O under VACV E9 pol inh: 97
Value of Oc1cccc(Nc2nc(NCC3CCCO3)c3ccccc3n2)c1 (stereo unspecified) under VACV E9 pol inh: 82
Value of Cc1cc(-c2ccccc2C(=O)NCc2ccccc2)on1 under VACV E9 pol inh: 105
Value of CC(C)N(Cc1ccccc1)C(=O)c1ccccc1C(=O)O under VACV E9 pol inh: 94
Value of Cc1ccc2oc(-c3ccccc3)cc(=NCCN(C)C)c2c1 under VACV E9 pol inh: 30*
Value of Cc1ccccc1S(=O)(=O)Nc1ccccc1 under VACV E9 pol inh: 93
Value of C[C@H](CCC(=O)O)[C@H]1CCC2C3C(=O)CC4CC(=O)CC[C@]4(C)C3CC(=O)[C@@]21C (stereo partly specified) under VACV E9 pol inh: 99
Value of CCC(=O)NCCc1cc2cc(C)c(C)cc2[nH]c1=O under VACV E9 pol inh: 102
Value of O=C(CC1(O)C(=O)N(CCc2ccccc2)c2ccc(Cl)cc21)c1ccccc1 (stereo unspecified) under VACV E9 pol inh: 96
Value of Nn1c(=S)[nH]c2cc(C(=O)O)ccc2c1=O under VACV E9 pol inh: 88

Other structures.
SMILES	VACV E9 pol inh
OCc1cc(-c2ccccc2Cl)no1	105
Cc1ccc(S(=O)(=O)Nc2ccccc2/C(O)=C(\C#N)c2nc3ccccc3n2C)cc1	101
Cc1onc(-c2ccccc2)c1C(=O)n1nnc2ccccc21	100
COc1ccc2oc(-c3ccccc3)c(C(=O)N(C)C)c2c1	100
CCC(C)Sc1nnc(NC(=O)c2ccccc2C(F)(F)F)s1 (stereo unspecified)	99
CC1(C)CC(NC(=O)c2ccn[nH]2)CC(C)(C)N1	100
O=C(O)c1cccc(NC(=O)c2cc3ccccc3oc2=O)c1	101
Cc1ccc(NC(=O)CCn2ccnc2C)cc1Cl	98
Nc1cc(S(=O)(=O)C(F)(F)F)ccc1Cl	96
N#CC1=C(N)Oc2c(sc3ccccc23)C1c1ccccc1OC(=O)c1ccccc1Cl (stereo unspecified)	99
CCN1C(=O)c2cccc3c(NC(=S)NC(=O)c4ccccc4)ccc1c23	100
CC1CCCCC1NC(=O)c1ccc2c(=O)n(Cc3ccc4c(c3)OCO4)c(=O)[nH]c2c1 (stereo unspecified)	101
O=C1C(C=NCCN2CCOCC2)=C(O)c2ccccc21	100
O=C(/C=C\c1ccc2c(c1)OCO2)NC1(C(=O)Nc2ccc3c(c2)OCO3)CCCCC1	87
O=c1sc2ccccc2n1Cc1nnc(SCc2ccccn2)n1-c1cccc(Cl)c1	104
CN(C)N1C(=O)c2cccc3cccc(c23)C1=O	88
C=CCn1c(SCc2ccccc2)nnc1-c1ccc2ncccc2c1	103
COc1cccc(-c2nc(CS(=O)(=O)CC(=O)NCCc3ccccc3)c(C)o2)c1	98
CCC(C)NC(=O)c1cn(CCOC)c(=O)c2c1c1ccccc1n2C (stereo unspecified)	100
CCN1C(=O)CC(c2ccc(OC)cc2)Sc2ccccc21 (stereo unspecified)	101
CCCCn1c(=O)c2oc3ccccc3c2n(CC(N)=O)c1=O	108
N/C(CS(=O)(=O)Cc1cccc(C(F)(F)F)c1)=N\O	100
COc1ccc(N2CCN(Cc3ccc(Cl)nc3)CC2)cc1	102
CSc1cccc(NC(=O)c2cnn3ccccc23)c1	104
COC(=O)C1=C(C)NC2=C(C(=O)CC(c3ccccc3)C2)C1c1ccc(N(C)C)cc1 (stereo unspecified)	101
CCCCN(CC)C(=O)c1cc2cc3cc(OC)ccc3nc2s1	79
O=C(CSc1cccc2cccnc12)OCC(=O)c1ccc(Br)cc1	96
CCc1ccc[n+](OC(=O)N(CC)CC)c1	99
CCCCC[C@H](O)/C=C/C1=C(CCCCCCC(=O)O)C(=O)CC1	99
CCN1CCN(C(=O)NC(C(=O)NC2C(=O)N3C(C(=O)O)=C(CSc4nnnn4C)CSC23)c2ccc(O)cc2)C(=O)C1=O (stereo unspecified)	102
CCCN(CCC)C(=O)c1ccc(CNS(=O)(=O)c2ccc(F)cc2)cc1	96
Cc1[nH]c2ccccc2c1C(=O)CSc1nnnn1-c1ccccc1	103
Cc1ccc(-n2ncc3c(=O)[nH]cnc32)c(C)c1	108
CSc1nnc(CNC(=O)c2ccccc2)n1-c1ccccc1	101
O=C(COC(=O)Cc1ccsc1)NC1CCCCCC1	93
CP(=O)(O)c1nccn1-c1ccc(Cl)nn1	100
CCN(CC)C1CCCCC1	100
O=C1/C(=C\Nc2ccc(F)cc2)S(=O)CN1c1ccc(F)cc1 (stereo unspecified)	103
Cc1ccc(C(=O)Nc2ccccc2)c(C)n1	103
Clc1cccc(C2OCC3(CO2)COC(c2cccc(Cl)c2)OC3)c1 (stereo unspecified)	100
CC1NC(=O)NC1CCCCC(=O)O (stereo unspecified)	99
N#Cc1sc2nc3ccccc3n2c1/N=C/c1cccs1	100
CC1CCCCC1NC(=O)c1ccccc1Cl (stereo unspecified)	96
CCOC(=O)c1c(C)oc(NC(=O)Nc2ccc(F)cc2)c1C(=O)OCC	100
Cc1c(N(C)CS(=O)(=O)O)c(=O)n(-c2ccccc2)n1C	101
CC(=O)Nc1ccc(NC(=O)CN(C)S(=O)(=O)c2ccc3nc(C)sc3c2)cc1	92
O=C1CC(c2ccc(Cl)cc2)Nc2nc3ccccc3n21 (stereo unspecified)	98
CC1CC2=C(NC(=S)NC2c2ccc(Cl)cc2)/C(=C/c2ccc(Cl)cc2)C1 (stereo unspecified)	100
C=CCN1CC[C@]23c4c5ccc(O)c4OC2C(=O)CC[C@@]3(O)[C@H]1C5 (stereo partly specified)	102
O=C(COC(=O)Cc1ccc(Br)cc1)NC1CC1	91
O=C(Nc1ccc2oc(=O)ccc2c1)c1cc2ccccc2o1	102
OCC(O)Cn1c2ccc(Br)cc2c2cc(Br)ccc21 (stereo unspecified)	65*
C=CCNc1nc(-c2ccc(OC)cc2)cs1	96
CN1/C(=C/C(=O)c2ccco2)Sc2ccccc21	100
Cc1nc(SCC(=O)N(C)c2ccccc2)c(C#N)c(C)c1C	100
CC1=CC(C)(C)Nc2ccc(OC(=O)c3ccc(Cl)cc3)cc21	105
N#CCN(CC#N)C(=O)c1ccco1	102
O=C1Nc2ccccc2/C1=C/C1CC=CCC1 (stereo unspecified)	92
COc1ccc(OC(=O)c2ccc(Cl)cc2)cc1	100
COC(=O)C(NC(=O)Cc1c(C)nc2c(-c3ccccc3)c(C)nn2c1C)C(C)C (stereo unspecified)	103
More entries:
SMILES	VACV E9 pol inh
CN1CCN(CC(=O)N2c3ccccc3Sc3ccccc32)CC1	117
Cc1cc2ccccc2n1CCNC(=O)C(C)C	98
Cc1[nH]nc2c1C(CCc1ccccc1)C(C#N)=C(N)O2 (stereo unspecified)	99
O=C(Nc1ccsc1C(=O)N1CCOCC1)c1ccccc1	108
CCOC(=O)c1ccc2c(c1)N(C)C(=O)c1ccccc1S2	102
O=C(O)CC1(CC(=O)N2CCc3ccccc32)CCCC1	100
CSc1nnc2[nH]c(=O)cc(N)n12	100
Fc1ccc(N=Cc2ccc3ncccc3c2)cc1F	91
COC(=O)COc1ccc(CSc2nc3ccccc3c(=O)n2C)cc1	100
Cc1cc(NC(=O)CSc2ccc3ccccc3c2)no1	83
O=c1cc(-c2ccc3ccccc3c2)[nH][nH]1	92
O=C(c1cccc2ccccc12)N1CCc2ccccc21	98
Cc1ccnc(SCC(=O)C(C)(C)C)n1	100
O=C(O)Cn1cc(C(=O)C2CC2)c2ccccc21	89
O=C(Nc1cccc2ccccc12)OC1CCS(=O)(=O)C1 (stereo unspecified)	101
CCN1CCN(c2oc(COc3ccccc3C)nc2C#N)CC1	107
CCc1ccc(C2NC(=O)NC3=C2C(=O)CCC3)cc1 (stereo unspecified)	102
O=c1oc(-c2cccs2)nc2ccccc12	94
Cc1ccc(S(=O)(=O)/N=C(/c2ccccc2)N(C)c2ccc(O)cc2)cc1	100
COC(=O)c1ccccc1CSC(=N)N	102
CCOc1ccccc1Cn1c(=O)oc2ccccc21	95
CC(/C=N/N1CCN(c2ccccc2)CC1)=C\c1ccco1	100
CCOC(=O)c1nc2ccccc2c(=O)n1/N=C/c1cc(Cl)cc(Cl)c1O	100
Cn1cccc1Cc1nnc(SCC(=O)N2CCCC2)n1CCc1ccccc1	97
COc1cc(Cl)ccc1S(=O)(=O)N1CCN(c2ccc(C)c(C)c2)CC1	114
CCOC(=O)c1ccc(S(=O)(=O)N(C)C)cc1	98
C=CCC(CC=C)(NS(=O)(=O)c1ccc(C)cc1)c1ccccc1	100
CC1(C)OC(=O)C(=Cc2ccoc2)C(=O)O1	93
COc1ccc(-c2nnc(SCc3ccc(F)cc3)n2-c2ccccc2)cc1	100
c1ccc(C2NCCc3[nH]cnc32)cc1 (stereo unspecified)	101
COc1ccnc(Nc2ccc(C)cc2)n1	93
O=C(CCc1nc2cccnc2n1Cc1cccs1)NCc1ccccc1	106
COc1nc2c([nH]1)C(c1ccc(OC(C)C)c(OC)c1)C(C#N)=C(N)O2 (stereo unspecified)	100
CCOc1ccc(C(C)C)cc1S(=O)(=O)Nc1ccc(Cl)cn1	102
O=c1c(-c2ccccc2)coc2c(CN3CCCCC3)c(O)ccc12	100
COc1ccc(-c2nc(C#N)c(N3CC(C)OC(C)C3)o2)cc1 (stereo unspecified)	99
Cc1ccc(NCn2c(=O)oc3ccccc32)cc1	100
COc1cc(S(=O)(=O)n2ccc(C)n2)ccc1Cl	96
COc1ccccc1NC(=O)NCc1nc(N)n(C(=O)Nc2ccccc2OC)n1	100
O=C(CC(Sc1ccc(Br)cc1)C(=O)O)c1ccc(Cl)cc1 (stereo unspecified)	98
CCOC(=O)C1CCCN(C(=O)Cc2c(C(=O)O)[nH]c3ccccc23)C1 (stereo unspecified)	98
CCOC(=O)C1=C(C)Nc2ccccc2[S@]1=O	108
COC(=O)C1=C(C)NC(=O)CC1c1ccccc1C (stereo unspecified)	107
CCOC(=O)c1c(CSc2nc(C)ccc2C#N)oc2ccc(OC(C)=O)cc12	97
CC(C)CCOc1ccc(C(=O)O)cc1	99
COc1ccc2c(c1)-c1ccccc1S(=O)(=O)N2C(C)=O	73
CCc1nc2c(cnn2-c2ccc3ccccc3c2)c(=O)[nH]1	104
Cc1ccc(OCC(=O)Nc2sc3c(c2C#N)CC(C)(C)NC3(C)C)cc1	102
Cc1ccc(-n2nnc3c(SCC(=O)N4CCCC4)ncnc32)cc1	103
COc1ccc(-n2c(SCC(=O)NCCc3ccccc3)nc3c(c2=O)SCC3)cc1	98
COc1ccc(-c2cc(=O)oc3cc4occ(-c5cccc(OC)c5)c4cc23)cc1	101
COc1ccccc1C(=O)N=c1sc2cc(Cl)ccc2n1C	100
O=c1oc2ccccc2n1CCOc1ccccc1	118
CCCCC(CC)CN=C1NS(=O)(=O)c2ccccc21 (stereo unspecified)	100
O=C(c1nsnc1-c1ccccc1O)N1CCCC1	101
Cc1nn(C)c(C)c1NC(=O)/C=C/c1ccco1	103
CCOc1ccc(Cl)cc1S(=O)(=O)N1CC(C)OC(C)C1 (stereo unspecified)	102
c1ccc(CSc2snnc2-c2ccccc2)cc1	112
COC(=O)c1cc(S(=O)(=O)N2CCSC2)oc1C	100
